Assay outcomes from PubChem.
H5N1 antiviral – MDCK cell protection from H5N1 avian flu; inhibition, % at 50 µM; AID 740; 96,000 tested, 0.07% active; cytopathic effect, luminescence, 72 h; hits give high values; no value below 0 was filed and about half of the inactive calls have no number; reference of the scale not given here; in the data active means inhibition above about 25%
An asterisk follows results filed as active; i = inactive. A portion of the library; the hit share may differ from the screen's.

SMILES	H5N1 antiviral
O=C(COC(=O)Cc1cccs1)Nc1ccc(F)c(F)c1F	i
Cc1cccc(-n2ncc3c(NCCCn4ccnc4)ncnc32)c1	i
O=S(=O)(NC1=NCCC1)c1cccs1	0.2
CCOC(=O)C1=C(c2ccccc2)NC(SCC(=O)Nc2ccc(C)cc2)=C(C#N)C1c1ccco1 (stereo unspecified)	i
CC1CCCCC1NC(=O)C(Cc1ccccc1)NS(=O)(=O)c1cccs1 (stereo unspecified)	0.4
COc1ccc(NC(=O)c2cc(Cl)ccc2NC(=O)c2ccco2)c(OC)c1	i
Cc1ccc(NC(=O)CSc2nnc(CSc3nc(C)cc(C)n3)n2Cc2ccco2)c(C)c1	i
COc1cc2cc(/C=C/C(=O)c3ccco3)c(Cl)nc2cc1OC	2.1
CCS(=O)(=O)n1nc(-c2ccccc2)nc1N	0.2
O=C(COC(=O)c1ccccc1NC(=O)c1ccco1)NCCC1=CCCCC1	i
CC(=O)OCc1c(C(F)(F)F)nn(C)c1SCc1ccc(Cl)cc1	0.3
Cc1ccc(/C=C2/NC(=O)N(Cc3ccccc3)C2=O)s1	i
CC(=O)Nc1ccc(N2C(=O)CCC2=O)cc1C	0.9
NC(=O)CSc1nc2ccccc2n1Cc1ccccc1F	i
COc1cc(OC)c(CN2CCN(c3ccc(F)cc3)CC2)cc1Br	i
N=c1n(CCN2CCOCC2)c2ccccc2n1CC(O)COc1ccccc1 (stereo unspecified)	0.5
NC(=O)c1c(N)sc(=S)n1-c1ccccc1	i
CCN1C(=O)/C(=C\N2CCCc3ccccc32)SC1=S	i
C=CC(C)n1c(Br)nc2c1c(=O)[nH]c(=O)n2C (stereo unspecified)	i
O=C(Nc1ccc2c(c1)OCO2)C1CCCN(S(=O)(=O)Cc2ccccc2)C1 (stereo unspecified)	i
Cc1ccc(CCNC(=O)C2CCCN(c3nc4ccccc4o3)C2)cc1 (stereo unspecified)	0.8
COc1ccc(CCN(CC(=O)NC2CCCC2)C(=O)CCC(=O)Nc2cc(C)on2)cc1OC	0.3
O=C(COc1ccc2ccccc2c1)N1CCCC1	0.9
Cc1ccc(C(=O)Oc2cc(-c3ccccc3)no2)cc1	0.4
Cc1cc2ccccc2n1CCNC(=O)C1CCCC1	i

Next section, starting with the last 6 of the part before.
SMILES	H5N1 antiviral
O=C(Nc1ccc2c(c1)OCO2)C1CCCN(S(=O)(=O)Cc2ccccc2)C1 (stereo unspecified)	i
Cc1ccc(CCNC(=O)C2CCCN(c3nc4ccccc4o3)C2)cc1 (stereo unspecified)	0.8
COc1ccc(CCN(CC(=O)NC2CCCC2)C(=O)CCC(=O)Nc2cc(C)on2)cc1OC	0.3
O=C(COc1ccc2ccccc2c1)N1CCCC1	0.9
Cc1ccc(C(=O)Oc2cc(-c3ccccc3)no2)cc1	0.4
Cc1cc2ccccc2n1CCNC(=O)C1CCCC1	i
COc1ccc(OCC(=O)Nc2ccc(NC(=O)c3ccco3)cc2)cc1	i
O=C(c1cccc(F)c1)N1CCC(N2CCCCCC2)CC1	i
COc1ccc(CN(C(=O)Cc2c[nH]c3ccccc23)C(C(=O)NC2CCCCC2)c2ccc(C)o2)cc1 (stereo unspecified)	i
CCOc1ccccc1N1CN(CC)CNC1=S	i
CC1CCCC(C)N1S(=O)(=O)c1ccc(NC(=O)CNCC2CCCO2)cc1 (stereo unspecified)	i
CC(=O)SCCC(=O)N1C(C)CCCC1C(=O)O (stereo unspecified)	i
O=C(NCc1ccccc1)c1cc(S(=O)(=O)N2CCOCC2)ccc1F	i
Cc1ncoc1C(=O)Nc1ccccc1-c1ccccc1	1.4
O=C(NCC1CCCO1)c1onc(CSc2cccc3ccccc23)c1C(=O)O (stereo unspecified)	0.3
CC(=O)c1sc(NC(=O)c2ccc(F)c(F)c2)nc1C	i
Cc1ccc(S(=O)(=O)c2ccc(Cl)cc2)cc1S(=O)(=O)N1CCOCC1	5.1
COc1ccc(CN2CCC(CNC(=O)NC3CCCCC3)CC2)cc1	i
O=C(Nc1ccc2c(c1)OCO2)c1cccc2c1C(=O)N(Cc1cccnc1)C2	i
O=C(Nc1ccccc1)c1ccncc1	i
O=C(CCCCCn1c(=O)[nH]c2ccccc2c1=O)N1CCN(Cc2ccc3c(c2)OCO3)CC1	1.2
CCOC(=O)N1CCC(NC(=O)CCC(=O)N2CC(C)Oc3ccccc32)CC1 (stereo unspecified)	i
O=C(Nc1cccc(-c2cnc3ccccc3n2)c1)c1ccco1	0.6
COc1ccccc1C(=O)Nn1c(C2CCC2)nc2ccccc2c1=O	1.5
COCc1nnc(NS(=O)(=O)c2ccccc2)s1	1.0
CCC1Oc2ccccc2N(CC(=O)NCCCN2CCC(C)CC2)C1=O (stereo unspecified)	0.7
CCOC(=O)N1CCN(CCC(=O)Nc2ccc(C)cc2)CC1	i
O=C(CN(Cc1ccccc1)C(=O)c1ccc2c(c1)OCCO2)NCc1ccc2c(c1)OCO2	i
COC(=O)c1sccc1NC(=O)c1ccc(OC)c(OC)c1	5.8
COC(=O)c1ccc2c(c1)C(C)(C)C(/C=C/c1ccc(OC)c(OC)c1OC)=[N+]2C	i
CC1=C(C(=O)N(C)Cc2ccccc2)C2(CCC(C)CC2)OC1=O (stereo unspecified)	i

A draw from above in order of SMILES length, low to high:
SMILES	H5N1 antiviral
CCOC(=O)N1CCN(CCC(=O)Nc2ccc(C)cc2)CC1	i
CCC1Oc2ccccc2N(CC(=O)NCCCN2CCC(C)CC2)C1=O (stereo unspecified)	0.7
O=C(NCc1ccccc1)c1cc(S(=O)(=O)N2CCOCC2)ccc1F	i

Next records
SMILES	H5N1 antiviral
Cc1ccc(-n2ncc3c2ncn2c(C)nnc32)cc1C	i
COc1ccc(-c2nc(-c3cccs3)c(-c3cccs3)[nH]2)cc1OC	0.7
O=C(NC1CCCc2ccccc21)c1ccc(=O)[nH]c1 (stereo unspecified)	i
O=S(=O)(NCc1cccnc1)c1ccc(Cl)c(Cl)c1Cl	2.2
C=C(c1ccc(OC)cc1)c1ccc(OC)cc1	i
CCC(=O)NCCc1cc2ccc(C)cc2[nH]c1=O	0.8
Cc1ccc(S(=O)(=O)Cc2ccc(C(=O)NCc3ccc4c(c3)OCO4)o2)cc1	1.0
O=C(Nc1ccccc1)C1CCCN(S(=O)(=O)c2ccc(-n3cnnn3)cc2)C1 (stereo unspecified)	0.4
O=C(CSc1c2c(nc3ccc(Cl)cc13)CCCC2)NCc1ccco1	i
O=C(c1ccccc1CCc1ccccc1)N1CCN(c2ccccn2)CC1	2.2
COc1ccc(NC(=O)C2(c3ccc(NC(=O)c4ccc(OC(C)=O)cc4)cc3)CCCC2)cc1	0.8
CSc1ccc(C(=S)N2CCN(Cc3ccccc3)CC2)cc1	0.3
C=C(C)COc1ccc(-c2[nH]ncc2Oc2ccccc2OCC)c(O)c1	i
COCCCn1c(CCC(=O)O)ccc1-c1cccs1	0.9
CCOc1cc(C(=O)NCc2ccncc2)cc(OCC)c1OCC	i
C#CCSc1nnc(-c2cc3c(C(F)(F)F)nn(C)c3s2)n1C	i
Cc1cc2ncn(S(=O)(=O)c3ccc(S(=O)(=O)N4CCOCC4)cc3)c2cc1C	i
CC1CCCC(NC(=O)CCCn2c(=O)[nH]c3cc(Cl)ccc3c2=O)C1C (stereo unspecified)	0.1
CCC(=NCc1ccc2c(c1)OCO2)c1c(O)n(C2CCCCC2)c(=O)[nH]c1=O	i
O=C(Nc1ccc2c(c1)OCO2)OCc1ccccc1	0.2
CCOC(=O)CSCC(=O)Nc1ccc(S(=O)(=O)N2CCCCC2)cc1	0.1
COC(=O)c1ccc2c(=O)n(CCCN3CCCC3=O)c(=S)[nH]c2c1	1.2
CC(=O)Nc1ccc(N2CCCCC2)c(C(=O)Nc2cccc(C)c2)c1	3.0
COCCNC(=O)CSc1nc(-c2ccc(OC)c(OC)c2)cc(C(F)(F)F)n1	i
O=c1cc(O)nc(SCc2ccccc2)[nH]1	0.7
SMILES	H5N1 antiviral
Cc1ccc(NC2c3ncccc3C(=O)N2C2CCCCC2)cc1C (stereo unspecified)	0.8
CCOc1ccc(C(=O)/C=C/c2ccc(SC)cc2)cc1	i
COc1ccc(N2C(=O)CCC(C(C)=O)=C2C)cc1	i
COc1ccccc1N1CCN(c2ncnc3c2oc2ccccc23)CC1	0.6
O=c1cccc2n1CC1CC2CN(Cc2cccc(Cl)c2Cl)C1 (stereo unspecified)	5.5
CCCCCC(=O)Nc1nc(C)c(-c2csc(Nc3ccc(Cl)cc3)n2)s1	i
O=C(O)CC(NC(=O)OCc1ccccc1)c1ccccc1 (stereo unspecified)	i
O=C(Cc1ccccc1)N(c1ccc(F)cc1)C1C=CS(=O)(=O)C1 (stereo unspecified)	i
O=[N+]([O-])c1cc(F)c(N2CCCCC2)cc1N1CCOCC1	1.2
O=c1cc2c(nn1Cc1ccccc1Cl)-c1ccccc1CC2	1.1
Cc1nnc(Oc2ccccc2)c2ccccc12	0.4
c1ccc(Cn2nnnc2C(c2ccncc2)N2CCOCC2)cc1 (stereo unspecified)	0.6
O=C(Nc1nnc(-c2ccc3c(c2)CCCC3)o1)C1CCCCC1	0.2
CC1CCN(c2ccc(NC(=S)NC(=O)c3ccc(-c4cccc([N+](=O)[O-])c4)o3)cc2)CC1	i
CCn1c2ccccc2c2cc(NC(=O)C(C)C)ccc21	i
CCNC(=O)CC1C(=O)N(CC)C(=S)N1NC(=O)c1ccc(Cl)cc1 (stereo unspecified)	0.1
COc1ccccc1OCCOc1ccccc1/C=N/n1cnnc1	0.7
CCN(CCCNC(=O)CCCCn1c(=O)[nH]c2ccccc2c1=O)c1ccccc1	i
Cc1ccc(Cl)cc1NC(=O)COC(=O)CC1CC2CCC1C2 (stereo unspecified)	i
N#C/C(C(=O)N1CCCCC1)=C1\Nc2ccccc2S1	0.3
COc1ccccc1-n1c(CNC(=O)c2ccco2)nnc1SCC(=O)Nc1ccc(F)cc1	i
CC(C)(C)NS(=O)(=O)c1ccc(CCC(=O)Nc2cc(Cl)ccc2Oc2ccccc2)cc1	i
Clc1ccccc1-c1nc(-c2ccccc2)n[nH]1	0.7
CCCCC(SCC(=O)Nc1ccccc1)C(=O)O (stereo unspecified)	0.4
CC1=C(C#N)C(C(F)(F)F)(C(F)(F)F)N=C(c2ccco2)N1	2.2
SMILES	H5N1 antiviral
O=C(Nc1ccccc1C(=O)O)c1ccc2ccccc2n1	0.8
COc1cc(S(=O)(=O)N(Cc2cccnc2)Cc2ccco2)ccc1-n1cnnn1	i
O=Cc1ccc2oc3nc4n(c(=O)c3c(=O)c2c1)CCCS4	2.1
O=C(c1cccc2ccccc12)N1CCN(CC2CC=CCC2)CC1 (stereo unspecified)	2.7
CO/N=C/NC(=O)c1ccc([N+](=O)[O-])c(CS(=O)(=O)c2ccc(Cl)cc2)c1	1.8
CC(=O)Nc1ccc(S(=O)(=O)N2CCC(NC(=O)C(Cc3cccn3C)NC(C)=O)CC2)cc1 (stereo unspecified)	0.4
O=C(O)c1ccc(NS(=O)(=O)/C=C/c2ccccc2)cc1O	2.1
Nc1ccc(S(=O)(=O)c2ccc(Cl)cc2)cc1	i
C1CCC(OCCN2CCN(CCOC3CCCCC3)CC2)CC1	i
Cc1cc(NC(=O)CCC2CCCC2)no1	1.0
O=C(CSCc1c(F)cccc1Cl)NCC1CCCO1 (stereo unspecified)	0.2
O=C(O)COc1ccc(Cl)cc1CO	1.6
O=C(c1cc2ccccn2n1)N1CCCC1	1.9
CCC(=O)Nc1cccc(NC(=O)CSc2nnc(C(C)C)n2CC)c1	0.1
Cn1c(SCc2nc(-c3ccc(Br)cc3)no2)nnc1-c1ccco1	i
CCn1nnnc1SCC(=O)Nc1ccc(OCc2ccccc2)cc1	i
CCOc1cc(/C=N\NC(=O)c2ccc(NC(=O)C(C)(C)C)cc2)ccc1OC(=O)c1cccc(C)c1	i
Oc1ccccc1C1=Nc2nc3ccccc3n2C(c2ccccc2)C1 (stereo unspecified)	i
CCc1ccc(NC(=O)CCn2c(=O)oc3ccccc32)cc1	i
Nc1c(C(=O)c2ccccc2)oc2ccccc12	0.5
CC(=O)N=c1sc(C(C)(C)C)c(C)n1C	0.6
COc1cc(C2CC(=O)c3cnc(NC(=O)COc4ccccc4)nc3C2)cc(OC)c1OC (stereo unspecified)	0.7
CN(Cc1ccccc1)S(=O)(=O)c1ccc(S(=O)(=O)N(Cc2ccc(F)cc2)C2CCCC2)cc1	i
CCOC(=O)CNC(=O)CSc1ncnc2c1cnn2Cc1ccccc1	i
N#Cc1ccc(-c2csc(NC(=O)C3CC3)n2)cc1	0.1
SMILES	H5N1 antiviral
O=C(Oc1ccc(Br)cc1C(=S)N1CCCC1)c1ccccc1Cl	2.4
CCC(=O)NC(NCC1CCCO1)C(Cl)(Cl)Cl (stereo unspecified)	i
CCOC(=O)c1ccc2nc(NC(=O)c3cccs3)sc2c1	i
O=C(Nc1ccccc1)c1ccc(OC(=O)c2cc3ccccc3o2)cc1	i
Cn1c(=O)c2cc(S(=O)(=O)NC(C(=O)NCc3cccnc3)c3ccccc3)ccc2n(C)c1=O (stereo unspecified)	1.3
O=S(=O)(NC1CC2CCC1C2)c1ccc(Br)s1 (stereo unspecified)	3.0
Cc1ccc2c(c1)-c1c(ssc1=S)C(C)(C)N2C(=O)CSc1nncn1C	2.0
O=C(NCc1ccco1)c1cnn2c1NC(c1ccc(Br)cc1)CC2C(F)(F)F (stereo unspecified)	1.0
CCN1CCN(C(=O)C2CC(c3ccc(F)cc3)=NO2)CC1 (stereo unspecified)	0.3
CCOc1ccc(C(=O)OCC(=O)Nc2cc(C)on2)cc1OCC	0.9

In a second layout: 2 of the compounds above.
| SMILES | H5N1 antiviral |
| --- | --- |
| O=S(=O)(NC1CC2CCC1C2)c1ccc(Br)s1 (stereo unspecified) | 3.0 |
| Cc1ccc2c(c1)-c1c(ssc1=S)C(C)(C)N2C(=O)CSc1nncn1C | 2.0 |
